# OX1R antag – antagonists of human orexin 1 receptor. O43613. CHO/OX1R cells, Fluo-8 calcium fluorescence, orexin A. inhibition, % at 5 µM. actives 0.43% (n = 330,000);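 active = inhibition above its plate's threshold, mean inhibition of all tested compounds on the plate plus 3 SD, cut at about 37% in these data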;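 note: 0% = orexin A challenge wells and 100% = SB-334867-A antagonist wells; not every result past the cut was called active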
# Target sequence (O43613 whole entry, looked up): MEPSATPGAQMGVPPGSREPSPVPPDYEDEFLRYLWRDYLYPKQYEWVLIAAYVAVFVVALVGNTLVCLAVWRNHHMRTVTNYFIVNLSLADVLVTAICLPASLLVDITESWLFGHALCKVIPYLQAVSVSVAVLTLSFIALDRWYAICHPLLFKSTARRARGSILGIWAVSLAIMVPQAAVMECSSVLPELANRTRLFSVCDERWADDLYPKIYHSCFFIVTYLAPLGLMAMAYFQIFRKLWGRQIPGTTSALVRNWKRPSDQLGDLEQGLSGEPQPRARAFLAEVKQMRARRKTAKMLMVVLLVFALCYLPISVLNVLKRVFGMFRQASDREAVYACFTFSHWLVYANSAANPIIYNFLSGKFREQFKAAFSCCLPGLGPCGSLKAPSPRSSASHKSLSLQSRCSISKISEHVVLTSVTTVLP
# * hit, by the source's call. The list is partial, and most or all hits are left out here.
Molecule | OX1R antag
COC(=O)c1ccccc1S(=O)(=O)NC(=O)c1ccccc1 | 3
Cc1ccc(S(=O)(=O)N(C)CCCC(=O)n2nc(C)cc2C)cc1 | -28
CCc1ccc(CN(C)C(=O)c2cc(COc3cc(C)c(Cl)c(C)c3)on2)nc1 | -38
O=C(O)C/C(=C\c1cc2c(cc1Br)OCO2)c1nc2ccccc2s1 | -19
O=C(CN1CCCCC1)c1c[nH]c2ccccc12 | -5
N#Cc1cnn(-c2ccc(F)cc2)c1N | -19
CC(=O)c1ccc(N(C)C)c2c(N(C)C)cccc12 | -21
CC(CN1CCCCC1)OC(=O)C(C)(c1ccccc1)c1ccccc1 (configuration not stated) | -18
N#Cc1c(N2CCN(C(=O)c3ccco3)CC2)nc(-c2ccccc2)c2c1CCCC2 | -38
CC(=O)Nc1ccc(NC(=O)C(C)OC(=O)CNC(=O)c2cccs2)cc1 (configuration not stated) | -9
COc1ccc(/C=N/Nc2ccccc2)cc1Cn1nc(C)c([N+](=O)[O-])c1C | -29
CCCCN(C)C(=O)c1nc2ccccn2c1CN1CCSCC1 | -19
c1csc(-c2ccc(N3CCOCC3)nn2)c1 | -5
Cc1cccc(NC(=O)CSc2nnc(-c3ccco3)o2)c1 | -21
COC(=O)c1[nH]c2cccc(Cl)c2c1NC(=O)CN1CCCCC1C (configuration not stated) | -26
CCOC(=O)C1CCN(c2c(NCCN3CCN(c4ccccc4)CC3)c(=O)c2=O)CC1 | 11
O=C(N/N=C/c1ccco1)c1ccc(NC(=O)c2ccccc2Cl)cc1 | -32
CC1CCCC(NS(=O)(=O)c2cccc3nsnc23)C1C (configuration not stated) | -24
Cc1cc(-c2n[nH]c(=S)o2)c(C)n1-c1ccccc1 | -5
Cc1c(C(=O)N2CCCC2)sc(NC(=O)c2cccc(Cl)c2)c1C#N | -14
CCC(=O)N1Cc2ccccc2-c2ccccc2C1=O | -3
O=C(Nc1ccccc1)Nc1nc2ccccc2s1 | -16
O=C(NCC1CCCO1)c1ccc(Cl)c(S(=O)(=O)N2CCOCC2)c1 (configuration not stated) | -3
Cc1[nH]n(-c2ccccc2)c(=O)c1C(=O)c1ccc(Cl)cc1 | -14
O=C(COC(=O)C1CCC1)Nc1ccc(Oc2ccccc2)cc1 | -6
Cc1ccc(C(=O)N2CCN(C(=O)N3CCOCC3)CC2)cc1 | 1
Cc1c(Cl)ccc(S(=O)(=O)NCCCn2ccnc2)c1Cl | -9
COC(=O)c1cc(N2CCN(C)CC2)nc2ccccc12 | -17
COc1ccc(-n2c(=S)[nH]c3cc(C(=O)NCCCN4CCCC4=O)ccc3c2=O)cc1OC | -3
COc1ccc(CN2CCCC(CNC(=O)c3ccc(F)cc3)C2)cc1OC (configuration not stated) | -19
CCCNC(=O)c1csc(Nc2cccc3ccccc23)n1 | -26
CC(=O)Nc1ccc(NC(=O)CSc2nnc(CNc3ccc(F)cc3)n2CC2CCCO2)cc1 (configuration not stated) | -17
CCCc1nc(SCC(=O)Nc2nc3c(s2)CCCC3)c2ccccc2n1 | -25
Cc1nc(NC(=O)COC(=O)CCc2nc3ccccc3s2)c(Cl)cc1Cl | -30
CCNC(=O)COc1ccc(/C=C2\COc3ccccc3C2=O)cc1OC | -36
O=C(CCCN1C(=O)c2cccnc2Oc2ccc(Cl)cc21)N1CCCCC1 | -23
CCOC(=O)c1c(C)[nH]c(C(=O)/C(C#N)=C/c2ccc(OC(F)F)c(OC)c2)c1C | -21
O=C(NCc1cc(C(F)(F)F)cc(C(F)(F)F)c1)C12CN(Cc3ccccc3)CC1C(c1cccc([N+](=O)[O-])c1)=NO2 (configuration not stated) | -17
CCN(CCO)c1ncnc2c1sc1nc(CC(C)C)c3c(c12)CC(C)(C)OC3 | -14
CC(=O)Nc1cc([N+](=O)[O-])ccc1N1CCOCC1 | -1
Cc1noc(/C=C/N(C)C)c1S(=O)(=O)N1CCCC(C(=O)NCc2ccccc2Cl)C1 (configuration not stated) | 0
COc1ccc(CN2CCN(C(=O)Cn3c(=O)oc4cc(Cl)ccc43)CC2)c(OC)c1OC | -26
O=C(CCCc1ccccc1)N=C1SC2CS(=O)(=O)CC2N1c1ccccc1F (configuration not stated) | -31
O=C(C1CCCC1)N1CCC(CC2CC(c3cccc(Br)c3)=NO2)(C(=O)NCC2CCCCC2)CC1 (configuration not stated) | -20
CC1(C)Cc2cccc(C(=O)Nc3ccc(F)cc3F)c2O1 | -40
CCOC(=O)CSc1nnc(CNc2cccc(Cl)c2)n1C | -21
FC(F)(F)c1ccc(-n2ccnc2)nc1 | -9
CC(=O)N1CCCc2cc(S(=O)(=O)N3CCCC(C(=O)Nc4cc(C)ccc4C)C3)ccc21 (configuration not stated) | -15
CCCc1nc2oc3ccccc3c(=O)c2c(=O)n1-c1ccccc1 | -18
CCOC(=O)C(C)Oc1nc(Oc2ccccc2)nc(N(C)C)n1 (configuration not stated) | -11
Cn1c(SCC(=O)Nc2nccs2)nnc1-c1ccco1 | 5
CCN1CCN(C(c2ccccc2F)c2nnnn2Cc2ccc3c(c2)OCO3)CC1 (configuration not stated) | -30
Cc1sc2ncnc(Sc3nnnn3-c3ccccc3)c2c1C | -22
CNC(=S)Nc1ccc([N+](=O)[O-])cc1C | 1
Cc1cccc(NCN2C(=O)C3C4C=CC(C4)C3C2=O)c1 (configuration not stated) | -13
COc1ccc(Cn2nnnc2C(c2cccs2)N2CCCCCC2)cc1 (configuration not stated) | 5
CCOP(=O)(OCC)c1nc(-c2ccccc2)oc1NCc1ccccc1 | -29
COC(=O)[C@@H](C)NC(=O)c1ccc2oc(CCc3ccccc3)nc2c1 | -14
O=C(O)Cn1c(=O)c2c(c3ccccc31)CCC2 | -11
O=C(NCCN1CCOCC1)C(=O)NCC1OCCN1S(=O)(=O)c1ccc(F)cc1 (configuration not stated) | -3

# Next section
Molecule | OX1R antag
Cc1cccc(NC(=O)c2ccc(NCCO)c([N+](=O)[O-])c2)n1 | -3
COCCc1nc2ccc(C(=O)N(C)Cc3cccc(-n4cccn4)c3)cc2o1 | -28
Cc1ccc2nc(C)c(C(=O)N/N=C/c3ccccc3[N+](=O)[O-])cc2c1 | -12
COc1cccc(OCc2cc(C(=O)NC3CCOCC3)no2)c1 | 13
CCOc1ccc(C(=O)Nc2ncccc2Cl)cc1 | -22
Cc1ccc(-c2c[nH]c(=S)n2-c2ccccc2F)cc1 | -15
COc1ccc(CN(C)Cc2c(O)ccc3ccccc23)cc1 | -34
Cc1nn(C)cc1/C=N\NC(=O)c1ccc(Cn2cc(Cl)cn2)cc1 | 2
CC(=O)N1CCN(Cc2nc3cc(NC(=O)c4cccs4)ccc3n2C)CC1 | -65
COc1ccc(-c2noc(C(C)NS(=O)(=O)c3ccc(NC(C)=O)cc3)n2)cc1 (configuration not stated) | -10
O=C(N/N=C/c1ccccc1C(F)(F)F)c1ccc(O)cc1 | -20
Nc1nnc(CSc2ccc(Cl)cc2)s1 | -5
N#CC1=C(N)N(c2ccccc2)C2=C(C(=O)CCC2)C1c1ccsc1 (configuration not stated) | -31
CCCCn1c(N)c(N(Cc2ccccc2OC)C(=O)CC2OC(=O)c3ccccc32)c(=O)[nH]c1=O (configuration not stated) | -13
COc1ccc(OC)c(NC(=O)C2CCCNC2=O)c1 (configuration not stated) | -1

# In the list so far, these contain a thiophene ring, fused or not:
Molecule | OX1R antag
CC(=O)Nc1ccc(NC(=O)C(C)OC(=O)CNC(=O)c2cccs2)cc1 (configuration not stated) | -9
c1csc(-c2ccc(N3CCOCC3)nn2)c1 | -5
Cc1c(C(=O)N2CCCC2)sc(NC(=O)c2cccc(Cl)c2)c1C#N | -14
CCN(CCO)c1ncnc2c1sc1nc(CC(C)C)c3c(c12)CC(C)(C)OC3 | -14
Cc1sc2ncnc(Sc3nnnn3-c3ccccc3)c2c1C | -22
COc1ccc(Cn2nnnc2C(c2cccs2)N2CCCCCC2)cc1 (configuration not stated) | 5
CC(=O)N1CCN(Cc2nc3cc(NC(=O)c4cccs4)ccc3n2C)CC1 | -65
N#CC1=C(N)N(c2ccccc2)C2=C(C(=O)CCC2)C1c1ccsc1 (configuration not stated) | -31

# (more compounds)
Molecule | OX1R antag
CCOC(=O)C1=C(N)n2c(s/c(=C\c3cccs3)c2=O)=C(C(=O)OCC)C1c1cccs1 (configuration not stated) | -5
O=S(=O)(Nc1ccc(C(F)(F)F)cc1)c1cnc[nH]1 | -18
Cc1ccc(-n2c(-c3ccco3)n[nH]c2=S)cc1 | 1
Cc1ccc(Nc2nc(N3CCN(C)CC3)nc(N)c2[N+](=O)[O-])cc1C | -14
CCCC1=C(C(=O)OCC)C(c2cccnc2)n2nc(C)nc2N1 (configuration not stated) | -11
CN(C)CCCN(Cc1ccccc1)C(=S)Nc1cccc(C(F)(F)F)c1 | -8
COc1c(Br)cc(Br)cc1/C=C1/C(=O)N=C(N)N1C | -3
COCCCNC(=O)C1CCN(c2nc(C)cc(C)n2)CC1 | -8
CSc1nnc(C)c(=O)n1COC(=O)c1ccccc1 | -10
COc1ccc(/C=N/N2CCN(c3ccccc3OC)CC2)cc1OC | -19
CCOc1ccccc1NC(=O)Cn1c(C)cc(COC)c(C#N)c1=O | -8
COc1ccc(C(=O)O/N=C(\N)Cc2ccc(Cl)cc2Cl)cc1OC | -25
Cc1cccc(Nc2ncc3c(n2)CC(c2ccco2)CC3=O)c1 (configuration not stated) | -30
COc1nc(NCC(C)C)nc(Oc2ccc(OCc3ccccc3)nn2)n1 | -18
Cc1ccc(Cl)cc1NC(=O)CCC(=O)NCc1ccco1 | -13
Cc1csc(=O)n1CCC(=O)OCC(=O)Nc1ccc(F)c(F)c1F | 2
Cc1cc(NC(=O)Nc2cccc(C(F)(F)F)c2)no1 | -13
CCC(Cc1ccccc1)NC(=O)CN1C(=O)CSc2ncccc21 (configuration not stated) | -10
CN(c1ccc(F)cc1)S(=O)(=O)c1ccc(Cl)c(C(=O)Nc2ccc3c(c2)CCC3)c1 | -13
O=C(NC1CCCCC1)c1cc(Cl)ccc1[N+](=O)[O-] | 5
COc1ccc(CN(C(=O)c2cccs2)c2ccccc2C(=O)O)cc1 | -10
Cc1cc(CN2CCCC(C(=O)Nc3ccc(-c4nc5ccccc5[nH]4)cc3)C2)n[nH]1 (configuration not stated) | -9
Cc1cc(N2CCCC2=O)c(N)cc1N | -11
CCOC(=O)C1CCN(Cc2ccc(F)cc2F)CC1 | -6
CCOc1ccc(CNC(=S)N/N=C/c2ccncc2)cc1 | -5
CCNc1nc(Oc2ccc(C(=O)OCC)cc2)nc(N2CCOCC2)n1 | -15
COc1ccc(NC(=O)C2C3C=CC(O3)C2C(=O)NCc2cccnc2)cc1 (configuration not stated) | -11
COC(=O)[C@]1(C)N[C@H](c2ccc(-c3ccccc3)cc2)[C@@H]2C(=O)N(C)C(=O)[C@@H]21 | -13
CCOC(=O)Cc1c(C)nc2c(-c3ccccc3OC)c(C)nn2c1C | -33
O=c1oc2ccccc2c(Nc2cccc3cccnc23)c1[N+](=O)[O-] | -21
CCNC(=O)NC(C(=O)OC)C12CC3CC(CC(C3)C1)C2 (configuration not stated) | -12
COCCCNC(=O)c1ccc(CS(=O)(=O)c2ccccc2OC)o1 | -4
CCOc1ccc(CN(C)CCc2ccccn2)cc1 | -2
Clc1ccc(Cc2nnc(-c3cccs3)o2)cc1 | -9
Cc1ccc2c(Cl)cc(Cl)c(OCC(=O)Nc3cccc(S(=O)(=O)N(C)C)c3)c2n1 | -34
Cc1cc(-c2nnc(CCC(=O)N(CC3CC3)CC3CCCO3)o2)no1 (configuration not stated) | -19
Cc1cc(-c2ccc(S(=O)(=O)N3CCN(c4cccc(C(F)(F)F)c4)CC3)s2)on1 | -6
CCN(CC)CC#CC(OC)(c1ccccc1)c1ccccc1 | -23
O=C(O)c1ccc(OCCCCCCOC2CCCCO2)cc1 (configuration not stated) | 5
Nc1nc(NC(=O)c2ccccc2)nn1-c1ccccc1 | 3
FC(F)(F)c1cc(C(F)(F)F)n2nc(-c3sccc3-n3cccc3)cc2n1 | -21
Cc1nc2ccc(S(=O)(=O)NCC(=O)NCc3ccc(Cl)cc3)cc2s1 | -35
COc1ccc(NC(=O)CS(=O)(=O)c2ccc(F)cc2)cc1 | -3
COc1cccc(N2CCN(C(=O)c3ccc(CS(=O)Cc4ccccc4Cl)o3)CC2)c1 (configuration not stated) | -19
Fc1ccc(Nc2nc(-c3ccncc3)cs2)cc1 | -17

# Among those listed so far, three contain bromine.
Molecule | OX1R antag
O=C(O)C/C(=C\c1cc2c(cc1Br)OCO2)c1nc2ccccc2s1 | -19
O=C(C1CCCC1)N1CCC(CC2CC(c3cccc(Br)c3)=NO2)(C(=O)NCC2CCCCC2)CC1 (configuration not stated) | -20
COc1c(Br)cc(Br)cc1/C=C1/C(=O)N=C(N)N1C | -3

# Remaining list, next part
Molecule | OX1R antag
Cc1cccc(N2CCN(C(=O)c3ccccc3NC(=O)C3CC=CCC3C(=O)O)CC2)c1 (configuration not stated) | -29
N#Cc1c(NC(=O)COC(=O)C2CC3C=CC2C3)oc(-c2ccccc2)c1-c1ccccc1 (configuration not stated) | 16
CCNCc1cc2cc(C)ccc2[nH]c1=O | -19
CCOC(=O)c1[nH]c(COC(=O)c2ccccc2NC(=O)c2ccco2)c(C(=O)OCC)c1C | -29
CSCCC(C(=O)N1CC2(C)CC1CC(C)(C)C2)N1C(=O)c2ccccc2C1=O (configuration not stated) | -18
CCOC(=O)c1[nH]c2ccccc2c1NC(=O)CC | -14
O=C(CNC(=O)c1ccc(Br)o1)NCCc1ccc(F)cc1 | 5
COc1ccc(C)cc1NC(=O)CN1CCN(c2ccc(F)cc2)CC1 | -24
O=C(c1ccco1)N1CCN(c2ncnc3c2cnn3-c2ccccc2)CC1 | 0
CSc1ccccc1NC(=O)CSc1n[nH]c(C)c1[N+](=O)[O-] | 8
COc1ccc(C(=O)N=C2CCC(C#N)=C3c4cc(OC)c(OC)cc4CCN23)cc1 | -12
CC(O)CNc1ncnc2nc[nH]c12 (configuration not stated) | -11

# Screening data (PubChem BioAssay)
